gsp ag – qHTS for Agonist of gsp, the Etiologic Mutation Responsible for Fibrous Dysplasia/McCune-Albright Syndrome: qHTS; AID 624287, 2012; actives 0.13% (n = 340,000); gsp mutant cells, cAMP HTRF, 30 min; control for the full effect not named in the record; Potency, µM (doses to about 76.9 µM), for inactives: top-dose activation (cAMP increase), usual class: activators; active = well fitted activation curve with a large enough effect; inconclusive = small, poorly fitted or top-dose-only effect, or another doubt; inactive = no such curve, though single readings can be large or run the other way; cell line not stated here;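 further: phosphodiesterase inhibitor Ro 20-1724 added with compounds to block cAMP breakdown; potency means the concentration at half of the fitted maximal effect; nearly all actives have a fitted effect of over 60% in size; about a fifth of the inactives were tested at one dose only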
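Cells stably selected in G418 were plated at 2000/well, grown 16-24 hr, then given compounds in DMSO with the PDE inhibitor […] (300 uM solution added) for 30 min at 37C; cAMP was read by HTRF.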
Menin MLL FP FL – qHTS Assay for Inhibitors Targeting the Menin-MLL Interaction in MLL Related Leukemias: Competition With Fluorescein Labeled MLL-derived Peptide; Fluorescence polarization, fluorescein-MLL peptide displacement from menin; FP activity change, % at 61.4 µM; 290,000 tested, under 10 active; AID 1766, 2009; inconclusive = falling polarisation curve, or a change in total fluorescence; inactive = total fluorescence flat and polarisation flat or rising; no compound was filed as active; the % refers to the polarisation; negative = inhibition;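 further: % of control where 0% means no effect; inhibitors lower the polarisation; unlabelled MLL peptide was the positive control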
gsp antagonist – qHTS for Antagonists of gsp, the Etiologic Mutation Responsible for Fibrous Dysplasia/McCune-Albright Syndrome: qHTS; gsp-mutant cells, cAMP HTRF, 30 min; control for the full effect not named in the record; Potency, µM (top dose mostly 76.9 µM), for the others: at the top dose activity change, negative = inhibition, most hits filed as inhibitors; actives 0.4% (n = 340,000); active = falling curve of any shape with a large fitted effect; inconclusive = falling curve, mostly with a smaller effect; inactive = flat or rising curve; cell line not stated here;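 further: intracellular cAMP measured with PDE inhibitor Ro 20-1724 present during compound exposure; potency means the concentration at half of the fitted maximal effect; on the % scale 0 is the no-effect control and ±100 the full control effect; nearly all actives have a fitted effect of over 65% in size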
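Cells in G418 medium, seeded 16-24 h, 37C; buffer exchange to DPBS + 1 mM CaCl2, 0.5 mM MgCl2, 0.05% BSA; cpds in DMSO + […] (300 uM stock), 30 min 37C; HTRF cAMP detection.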
D2 ag – Beta-Arrestin HTS for Positive Allosteric Modulators of the Human D2 Dopamine Receptor: Agonists; DiscoveRx PathHunter D2 beta-arrestin, luminescence, 90 min; 100% = 57 uM dopamine signal; activation, % (concentration not given with the values); actives 0.084% (n = 360,000); in the data active = activation above about 40%; inconclusive = about 15% to 40%; inactive = below about 15%; further: compound concentration not given in the record; the text of the record calls up to 30% inactive
Target sequence (P14416 whole entry, looked up): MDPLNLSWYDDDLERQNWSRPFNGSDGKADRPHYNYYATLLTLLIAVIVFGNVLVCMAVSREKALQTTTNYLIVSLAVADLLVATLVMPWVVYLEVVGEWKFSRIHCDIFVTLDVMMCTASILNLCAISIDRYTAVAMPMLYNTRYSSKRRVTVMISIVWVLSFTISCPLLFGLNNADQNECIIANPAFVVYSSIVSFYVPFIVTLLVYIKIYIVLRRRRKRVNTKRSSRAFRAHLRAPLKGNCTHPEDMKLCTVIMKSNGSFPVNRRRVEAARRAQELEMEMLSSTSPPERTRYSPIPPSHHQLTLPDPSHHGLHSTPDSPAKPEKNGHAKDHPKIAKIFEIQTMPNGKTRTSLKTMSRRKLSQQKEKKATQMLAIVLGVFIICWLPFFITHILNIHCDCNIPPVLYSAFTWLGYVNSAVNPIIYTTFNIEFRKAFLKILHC
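DiscoveRx PathHunter D2 beta-arrestin cells (2,100/well) attached overnight, then compound-stimulated 90 min at 37 C in HBSS/10 mM HEPES/0.1% Tween-20 buffer; beta-galactosidase complementation read by luminescence after 1 h at ambient temperature. Dopamine 57 uM final (EC100) as control.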
ClpP mod – qHTS Assay for Activators of ClpP. actives 1.9% (n = 340,000). purified B. subtilis ClpP, FRET peptide cleavage, 20 min. ATP-dependent Clp protease proteolytic subunit (Bacillus subtilis (strain 168)), P80244. Potency, µM (highest dose often 57.5 µM), inactives show at the top dose activity change, negative = active; active = well fitted falling curve with a large enough effect; inconclusive = small, poorly fitted or top-dose-only effect; inactive = no such curve, though single readings can be large or run the other way; further: potency means the concentration at half of the fitted maximal effect; the source files actives as falling curves though it sought activators and does not explain the sign; nearly all actives have a fitted effect of over 65% in size; many hits overshoot -100%
Target sequence (P80244 whole entry, looked up): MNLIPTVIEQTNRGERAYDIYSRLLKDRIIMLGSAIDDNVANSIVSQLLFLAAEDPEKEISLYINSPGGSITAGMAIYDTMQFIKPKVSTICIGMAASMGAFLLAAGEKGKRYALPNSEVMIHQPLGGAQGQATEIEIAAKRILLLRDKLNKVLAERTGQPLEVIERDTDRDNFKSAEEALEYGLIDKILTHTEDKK
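FRET quenching reversal measured ClpP activation: 10 microg/mL B. subtilis ClpP at pH 8 with the FRET-FV decapeptide, read at 430 nm after 320 nm excitation. The 20-min minus 0-min signal was scaled between DMSO/no-enzyme wells and ADEP (5.8 microM final).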
PINK1 expr mod – A Quantitative High throughput Screen to Identify Chemical Modulators of PINK1 Expression; Potency, µM (series often up to 76.6 µM), inactives show at the highest dose activation (PINK1 increase), actives largely listed as activators; actives 0.2% (n = 410,000); PINK1 immunofluorescence, high-content cytometry, 24 h; active = well fitted activation curve with a large enough effect; inconclusive = small, poorly fitted or top-dose-only effect; inactive = flat fitted curve, though single readings scatter; cell line not stated here;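 further: potency means the concentration at half of the fitted maximal effect; % of control where 0% means no effect; nearly all actives have a fitted effect of over 65% in size; a mitochondrial uncoupler was the plate control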
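Cells are seeded, rested 12 hours, then given compound at five concentrations or DMSO for 24 hours. After fixation, blocking and antibody staining, PINK1 amount and mitochondrial localization are scored; CCCP serves as control.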
Sfp PPTase inh – qHTS Assay for Inhibitors of Bacillus subtilis Sfp phosphopantetheinyl transferase (PPTase) | 4'-phosphopantetheinyl transferase ffp (Bacillus subtilis), Q9F4F7 | Biochemical Sfp PPTase activity, qHTS | Potency, µM, without a hit: max response, negative = inhibition, most hits filed as inhibitors | actives 3.5% (n = 310,000); active means well fitted inhibition curve with a large enough effect; inconclusive means small, poorly fitted or top-dose-only effect, or another doubt; inactive means no such curve, though single readings can be large or run the other way;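 further: the enzyme is Sfp with the accession as filed and its product quenches rhodamine fluorescence; potency means the concentration at half of the fitted maximal effect; 0% = enzyme reaction without inhibitor and -100% = no enzyme wells; top concentration of the series not given in the record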
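With Hepes-Na pH 7.6 buffer containing 10 mM MgCl2, Sfp (15 nM) modified BHQ-2-YbbR (12.5 uM) using rhodamine-CoA (5 uM). Two reads 30 minutes apart at 525/598 nm yielded each well's rate.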
Starred values were filed as active, the others as inactive; u = inconclusive; x = no result given; & = joins results of further samples; [ ] = remark or other dose. This is a random part of the collection; any-hit rate near 5.1%.

SMILES	gsp ag	Menin MLL FP FL	gsp antagonist	D2 ag	ClpP mod	PINK1 expr mod	Sfp PPTase inh
C[C@@H]1C(c2ccc(F)cc2)=NN(c2ccc(Br)cc2)[C@H]1C(=O)N1CCOC1=O	x	-0.8	-17.1%	1.9	4.9%	-0.2%	6.9%
CCC(=O)c1ccc2c(c1)N(CCCN(C)C)c1ccccc1S2	x	2.0&2.8	-9.1%	-5.4	-0.5%	-0.9%	2.5%
FC(F)(F)c1ccccc1-c1nc(N2CCNCC2)c2ccccc2n1	x	-0.2	x	x	x	1.2%	5.5%
CN(C)c1ccc(NC2=C(Cl)C(=O)c3ccccc3C2=O)cc1	24.0%	6.2	u	9.5	x	-1.7%	u
COCCNC(=O)C1(C)CCCN(C(=O)c2cc(OC)c(OC)c(OC)c2)C1 (configuration not stated)	x	x	x	2.8	0.5%	0.2%	x
Cc1cc(NS(=O)(=O)c2ccccc2)ccc1NS(=O)(=O)c1ccccc1	1.6%	x	-12.4%	-1.7	x	-0.5%	x
CC(=O)N1c2ccc(S(=O)(=O)NCCC(=O)NCCc3ccc(Cl)cc3)cc2CC1C (configuration not stated)	28.4%	-1.1	u	1.4	0.3%	-1.6%	5.7%
Cc1ccc(OCC(=O)N/N=C/c2cccnc2)cc1C	12.8%[15.4 µM]	0.6	1.5%	-3.9	x	0.6%	15.5%
S=C(Nc1cccc(Br)c1)N1CCn2cccc2C1c1cccnc1 (configuration not stated)	1.5%[15.4 µM]	-0.4	-31.4%	-6.8	x	3.0%	2.5%
Cn1c(=O)c2c(nc(NCCCO)n2Cc2cccc(C(F)(F)F)c2)n(C)c1=O	u	-0.6	11.2%	0.4	-0.5%	1.5%	5.4%
Cc1cccc(/C=N/NC(=O)c2cccc(NC(=O)c3ccccc3)c2)n1	-16.9%	-0.3	-1.2%	6.0	x	-0.9%	0.6%
Cc1ccc(Cn2cccc2C2=NC(C)CO2)cc1 (configuration not stated)	21.7%	4.2	-26.4%	-3.2	-1.1%	-0.5%	4.2%
CN(CCCN1CCOCC1)C(=O)c1cc(COc2c(F)cccc2F)on1	-13.9%	2.6	-7.9%	-6.3	0.7%	0.3%	2.1%
CCn1c(SCC(N)=O)nnc1-c1ccc2[nH]c(C)c(C)c2c1	u	-0.8	1.1%	-3.3	-6.2%	-3.5%	17.2%
COc1ccccc1CNC(=O)COC(=O)c1ccco1	-15.2%	x	9.0%	-4.4	-2.4%	1.4%	x
Cc1cccc(OCC(=O)Nc2ccccc2N2CCCCC2)c1	-7.8%	3.6	-0.1%	-3.9	0.9%	u	1.0%
COCCNC(=O)CN(C(=O)CCC(=O)Nc1ccccn1)c1ccccc1OC	32.9%	4.7	4.4%	-3.3	0.9%	-0.1%	16.8%
O=C1C(Cl)=C(Nc2ccccc2)C(=O)c2ccccc21	-39.9%[inhibitor]	2.6	-4.8%	1.3	-0.8%	-2.4%	1.2%
CC(C)C(=O)Nc1cccc(S(=O)(=O)c2cccc(NC(=O)C(C)C)c2)c1	11.6%	0.9	-10.2%	0.2	-3.0%	0.9%	24.8%
O=C(c1ccc(C(=O)N2CCN(c3ccccc3F)CC2)nc1)N1CCN(c2ccccc2F)CC1	u	-0.4	10.3%	-2.0	1.8%	0.6%	-1.3%
COc1ccccc1N1CCN(C(=O)CCn2c(=O)[nH]c3ccccc3c2=O)CC1	-10.4%	-1.6	6.2%	-2.4	-5.5%	3.9%	-6.2%
CCOC(=O)Nc1ccc2c(c1)N(C(=O)CCN1CCN(CCO)CC1)c1ccccc1S2	-2.4%	x	16.6%	-4.2	0.9%	-2.1%	x
Cc1ccc(S(=O)(=O)N2CCN(C(=O)c3ccc4nc[nH]c4c3)CC2)cc1	-19.1%[15.4 µM]	x	-2.1%	2.6	x	1.7%	x
COc1ccc(N2C(=O)N3[C@H](c4ccc(Br)cc4)[C@@H]4C(=O)N(C(C)(C)C)C(=O)[C@@H]4[C@]3(Cc3ccccc3)C2=O)cc1	x	-8.4	-6.4%	-1.5	0.4%	2.3%	2.4%
O=C(NCCc1ccc(Cl)cc1)C(=O)Nc1cc2c3c(c1)CC(=O)N3CCC2	-10.7%	x	-13.9%	0.0	-0.6%	11.8%	x
Further entries:
SMILES	gsp ag	Menin MLL FP FL	gsp antagonist	D2 ag	ClpP mod	PINK1 expr mod	Sfp PPTase inh
COc1ccc(NC(=O)c2ccc(NC3=NC4CS(=O)(=O)CC4S3)cc2)cc1 (configuration not stated)	-35.7%[inhibitor]	-2.7	7.9%	0.8	0.5%	1.0%	5.3%
CC1=NOC(=O)/C1=C\c1ccc(-c2ccccc2Br)o1	15.8µM*	2.3	7.6%	1.6	3.2%	-1.0%	56.2µM*
Cc1nn(C)c(C)c1C1C(C#N)=C(N)OC2=C1C(=O)CCC2 (configuration not stated)	-10.0%[15.4 µM]	5.4	13.4%	3.6	0.4%	-1.6%	-3.8%
COc1ccc(NC(=O)Nc2ccon2)c(OC)c1	-48.1%[inhibitor]	-0.9	-3.9%	-3.6	0.6%	-0.6%	10.7%
COc1ccc(CCNC(=O)c2cc(=O)[nH]c3ccc(Br)cc23)cc1OC	-20.8%	0.4	1.1%	-3.4	x	-0.2%	-13.7%
COC(=O)CSc1nc(N2CCCCC2)c2c(c1C#N)CCCC2	2.4%	0.9	u	-3.1	u	0.9%	u
COc1cccc(NC2=NC3(CCCCC3)N=C(N)N2)c1	u	3.7	7.9%	-2.5	0.4%	6.5%	0.7%
COc1cccc(CN2CCNC(=O)C2CC(=O)N(C)CC2CCOCC2)c1 (configuration not stated)	20.6%[15.4 µM]	x	0.5%	0.0	-1.7%	-0.6%	13.7%
Cn1c(OCc2ccc3c(c2)OCO3)nc2c1c(=O)n(Cc1ccc(Cl)c(Cl)c1)c(=O)n2C	16.4%	4.4	2.5%	-4.4	-1.2%	4.3%	u
Cc1cccc(NC(=S)N(CCc2nc3cc(C)c(C)cc3[nH]2)Cc2cccnc2)c1	-18.4%	6.4	-3.0%	-0.9	0.5%	x	8.7%
COc1ccccc1NS(=O)(=O)c1cccc(C(=O)N/N=C/c2ccccc2OCC(=O)O)c1	-73.3%[inhibitor]	1.7	7.9%	2.7	x	-0.5%	-29.1%
CN(C)CCCN(C(=O)CCOc1ccccc1)c1nc2c(F)cccc2s1	-89.6%[inhibitor]	3.3	-3.0%	-1.7	-1.3%	-1.2%	50.1µM*
COc1ccccc1/C=N/NC(=O)Cn1cnc([N+](=O)[O-])n1	-2.4%[15.4 µM]	-5.7	6.1%	0.9	x	-0.4%	-5.2%
CCOP(=O)(OCC)C(NC(=O)Nc1ccc(Cl)cc1)C(N)=O (configuration not stated)	0.4%[15.4 µM]	-3.3	22.9%	9.1	-5.1%	4.6%	5.0%
CCc1ccccc1NC(=O)CCS(=O)(=O)c1ccc2c(c1)CCCN2C(C)=O	-4.5%	x	14.4%	2.1	0.8%	-1.6%	-8.2%
Cc1ccc(-c2cc(C(F)F)nc3sc4c(=O)[nH]cnc4c23)cc1	u	x	11.8%	-2.6	-2.7%	13.8%	x
Cc1cccc(-c2nnc(SCC(=O)Nc3cc(C)on3)n2C)c1	-10.5%	x	-2.5%	-1.3	x	-0.2%	-2.0%
CCOc1ccc(CN2CCN(Cc3nc4c(s3)CCCC4)CC2CCO)cc1 (configuration not stated)	-4.9%	-1.6	3.6%	-1.6	0.2%	-0.7%	9.0%
Cc1ccc(C2(C)NC(=O)N(CC(=O)Nc3ccc4[nH]c(=O)[nH]c4c3)C2=O)cc1 (configuration not stated)	u	5.8	-7.9%	-1.9	-3.6%	3.2%	-4.3%
CCOc1cc2[nH]c(=O)n(CCc3ccc(OC)c(OC)c3)c(=O)c2cc1OCC	-7.1%	0.0	-0.2%	0.0	-8.0%	-0.6%	-7.0%
O=C(NCCCN1CCCC1=O)c1ccc2c(c1)NC(=O)C(N1CCOCC1)S2 (configuration not stated)	2.8%	1.0	8.8%	2.2	1.2%	-0.2%	70.8µM*
CC(C)(C)OC(=O)N1CCc2onc(-c3ccc(Cl)cc3)c2C1=O	-37.3%[inhibitor]	x	x	1.9	-1.4%	2.5%	x
CCOC(=O)C1=C(C)Nc2ncnn2C1c1cc(Br)ccc1F (configuration not stated)	u	1.0	-0.5%	3.4	-0.3%	8.8%	-1.5%
Cc1cccc(C(=O)NC(=S)NNC(=O)COc2ccc(Cl)cc2)c1	12.4%	1.8	-4.3%	0.8	x	21.3%	u
O=C(Cn1cc(F)c(=O)[nH]c1=O)NCCO	-12.2%	0.1	3.9%	-1.5	-3.3%	0.1%	-9.6%
Additional results follow:
SMILES	gsp ag	Menin MLL FP FL	gsp antagonist	D2 ag	ClpP mod	PINK1 expr mod	Sfp PPTase inh
COCCNC(=O)/C(C#N)=C/c1ccc(SC)cc1	-6.7%	-1.0	2.9%	-4.3	x	-1.1%	-10.8%
O=C(NCC1CCCN(C(=O)c2cccnc2)C1)c1ccc(-c2ccccc2)cc1 (configuration not stated)	11.1%	-3.9	3.7%	2.6	x	-0.7%	-1.4%
CCOC(=O)c1cc2c(ccn2C)n1Cc1ccccc1C	-47.4%[inhibitor]	-0.6	u	-1.7	u	3.7%[38.3 µM]	-6.7%
O=C(CNC(=O)c1ccccc1)N/N=C/c1ccc([N+](=O)[O-])o1	24.8%	2.0	-15.1%	5.7	1.8%	20.3%	-10.0%
Cn1cnc(C(=O)N2CCN(C(=O)OC(C)(C)C)CC2)c1C(=O)N1CCN(C(=O)OC(C)(C)C)CC1	x	x	8.6%	0.9	-0.4%	0.8%	x
O=C(Nc1cnccn1)c1cccc(C(F)(F)F)c1	27.2%	0.8	11.5%	3.0	0.2%	u	21.4%
Brc1cc2c(cc1Br)OCCOCCOCCOCCO2	-3.1%[15.4 µM]	3.6	-6.1%	-2.2	x	0.2%	8.2%
CCOc1ccc(/C=N/NC(=O)c2cc(-c3ccccc3)nc3ccccc23)cc1O	-6.2%	3.7	-11.9%	-4.5	-5.3%	5.3%	9.6%
CC(O)Cn1nc([N+](=O)[O-])nc1N (configuration not stated)	u	7.4	6.3%	-0.4	-0.7%	0.9%	14.8%
